StopGo FLuc – lowers the firefly signal of an FMDV 2A StopGo reporter | Potency, µM (doses to about 57.5 µM), without a hit: at the highest dose signal change, negative = less light | HEK cells with a luciferase reporter of 2A StopGo recoding | AID 1745856 | 120,000 compounds, 0.23% hits; active = well fitted falling curve with a large enough effect; inconclusive = small, poorly fitted or top-dose-only effect; inactive = no such curve, though single readings can be large or run the other way; further: nearly all actives have a fitted effect of over 60% in size; overnight with compound
2A Renilla – lowers the Renilla signal of an FMDV 2A StopGo reporter. HEK cells with a luciferase reporter of 2A StopGo recoding. Potency, µM (highest dose often 57.5 µM), inactives show at the top dose signal change, negative = less light. 120,000 compounds, 0.32% hits. AID 1745857; active means well fitted falling curve with a large enough effect; inconclusive means small, poorly fitted or top-dose-only effect; inactive means no such curve, though single readings can be large or run the other way; further: nearly all actives have a fitted effect of over 55% in size; overnight with compound
The depositor's hits bear a star; ? = inconclusive; [ ] = another dose, or the depositor's remark. On the % scale 0 is the no-effect control and ±100 the full control effect; potency means the concentration at half of the fitted maximal effect. A portion of the library; the hit share may differ from the screen's.

SMILES	StopGo FLuc	2A Renilla
Cc1ccc2nc3c(cc(C(=O)NCc4ccco4)c(=N)n3C(C)C)c(=O)n2c1	-9.7%	25.3%
CC(NC(=O)C12CC3CC(CC(C3)C1)C2)c1cccs1 (centres undefined)	0.0%	41.6%[activator]
CCn1c(SCc2ncc(-c3ccccc3)o2)nnc1-c1ccccc1	20.9%	23.8%
O=C(O)Cc1ccc2c(c1)[nH]c1ccccc12	8.4%	-17.5%
CCCCN(CCCNC(=O)c1cc(Nc2ccc(OC)c(OC)c2)nc2ccccc12)c1ccccc1	13.5%	11.7%
COc1ccccc1CNC(=O)CSc1nnc(-c2ccco2)n1C	7.9%	-1.0%
COCC(=O)NC1CCN(Cc2nnnn2-c2ccccc2)CC1	-2.3%	-12.4%
O=C(OCc1ccc(Cl)cc1Cl)c1ccc(O)cc1	0.0%	0.3%
Cc1cc(C)c(OCC(=O)Nc2ccc(N3CCN(C(=O)C(C)C)CC3)cc2)c(Cl)c1	-7.4%	-13.7%
CCOC(=O)C(c1c(O)c2ccccc2oc1=O)c1c(O)c2ccccc2oc1=O	-16.7%[11.5 µM]	87.7%[activator]
Cc1cccn2c(=O)c3cc(C(=O)N(Cc4ccccc4)Cc4ccccc4)n(C)c3nc12	8.3%	34.3%
CC(CNC(=O)Cc1n[nH]c(=O)c2ccccc12)(c1ccccc1)c1ccccc1	7.8%	0.0%
COc1ccc(-n2cnc3scc(-c4ccc(OC)c(OC)c4)c3c2=O)cc1	-0.8%	-11.6%
CC(C)n1c(C2CC(=O)N(c3cccc(C(F)(F)F)c3)C2)nc2ccccc21 (centres undefined)	-14.3%	9.0%
COc1cccc(C2CC(=O)Nc3c2c(=O)nc2c(C)cccn32)c1OC (centres undefined)	-3.9%	3.9%
Cc1[nH]c(C(=O)NCCc2ccc(F)cc2)c(C)c1C(=O)OC(C)C	0.0%	6.8%
OC(CC#CN1CCCCC1)(c1ccccc1)C1CCCC1 (centres undefined)	10.7%	8.4%
CC(NC(=O)CCc1ncc(-c2ccc(F)cc2F)o1)c1ccc2c(c1)OCO2 (centres undefined)	14.3%	0.6%
CCCCCCCCCCCCCCCC(=O)Nc1ccccc1	0.0%	15.2%
COc1cccc(CNC(=O)c2sc3ncccc3c2-n2c(C)ccc2C)c1OC	?	-0.5%
COc1ccc(/C=C/C(=O)c2ccc(C)cc2)cc1	105.6%[activator]	32.3%[activator]
CN(C)c1ccc(S(=O)(=O)N2CCCCC2)cc1NS(=O)(=O)c1ccc2ccccc2c1	1.5%	171.8%[activator]
COC(=O)CC1Oc2ccccc2-n2cc(-c3ccc(Cl)cc3)nc21 (centres undefined)	14.7%	6.5%
CC(C)(C)OC(=O)N1CCC(c2c(C(=O)N3CCN(Cc4ccccc4)CC3)cnn2-c2ccc(Cl)cc2)CC1	19.4%	-7.3%
CCOc1ccc(NC(=O)C(C)Oc2ccccc2OC)c2cccnc12 (centres undefined)	-9.8%	-9.5%

Pulled by structure from above:
SMILES	StopGo FLuc	2A Renilla
CC(CNC(=O)Cc1n[nH]c(=O)c2ccccc12)(c1ccccc1)c1ccccc1	7.8%	0.0%
CC(C)n1c(C2CC(=O)N(c3cccc(C(F)(F)F)c3)C2)nc2ccccc21 (centres undefined)	-14.3%	9.0%
CCOc1ccc(NC(=O)C(C)Oc2ccccc2OC)c2cccnc12 (centres undefined)	-9.8%	-9.5%

The listing continues.
SMILES	StopGo FLuc	2A Renilla
Cc1ccc(-c2nnc(Nc3ccc(Br)cc3)c3ccccc23)cc1S(=O)(=O)NCc1nc2ccccc2[nH]1	-15.0%	-7.3%
C=CCSC1=N/C(=C\c2ccc(C)s2)C(=O)S1	6.5%	-5.2%
Cc1cc(C)c2cccc(C)c2n1	-3.4%	3.4%
CCCn1nc(C)cc1-c1nn2c(-c3cccc(F)c3)nnc2s1	-7.0%	-14.9%
O=c1cc(-c2ccc(F)cc2)nc(SCc2nc(-c3ccccc3Cl)no2)[nH]1	-13.9%	-15.8%
Cn1c(=O)c2c(nc(N3CCN(c4ccccn4)CC3)n2Cc2ccccc2Cl)n(C)c1=O	1.9%	-9.5%
CCn1cc(C(=O)NCCc2ccc(Cl)cc2)c(=O)c2cc(S(=O)(=O)N3CCc4ccccc4C3)ccc21	-11.6%	-10.7%
CCN1CCN(CCNC(=O)CC2CCN(C(=O)c3cc(OC)c(OC)c(OC)c3)CC2)CC1	-7.9%	-6.6%
Cc1ccc(C)c(CSc2nc3ccncc3n2Cc2nc(-c3ccccc3Cl)oc2C)c1	-20.6%	-17.7%
Cc1c(C)c2ccc(OC(C)C(=O)NCc3cccnc3)cc2oc1=O (centres undefined)	5.4%	12.1%
CCCCOC(=O)c1nc2ccccc2nc1NCc1ccc2c(c1)OCO2	13.5%	-9.6%
COc1ccc(OC)c(CNS(=O)(=O)c2ccc3c(c2)CCCN3C(C)=O)c1	-10.3%	109.0%[activator]
Cc1ccc(S(=O)(=O)NCC2CCC(C(=O)NCC(=O)NCc3ccco3)CC2)cc1 (centres undefined)	-0.4%	10.2%
COc1ccc(CNc2nc3ccccc3c3nc(-c4ccccc4)nn23)cc1	-5.1%	0.9%
Cc1ccc(N2CCN(C(=O)c3cc4ccccc4[nH]3)CC2)cc1	51.9%[activator]	-3.7%
c1ccc(-c2nnc(SCc3nc4ccccc4o3)o2)cc1	0.0%	4.1%
COc1cccc(NC(=O)c2cnc(SCC(=O)N3CCOCC3)n(C)c2=O)c1	1.5%	-9.7%
COc1ccc(C2=NN(c3nc(C)cs3)C(c3ccccc3)C2)cc1 (centres undefined)	72.9%[activator]	26.3%
Cc1nc(N)sc1C	4.6%	-7.6%[1.06 µM]
CCc1ccc(NC(=O)Cn2nc3c(cc2=O)CC(C)CC3)cc1 (centres undefined)	-8.4%	-9.7%
CSc1ccc(NC(=O)C2CCN(c3ncccn3)CC2)cc1	33.5%	3.6%
CC1=C(C(=O)Nc2cccnc2)C(c2ccccc2Cl)n2nc(-c3ccccc3)nc2N1 (centres undefined)	-23.3%	-7.7%
CC(=O)Nc1ccc2c(C(C(=O)O)N3CCN(c4cc(C)c5ccccc5n4)CC3)c[nH]c2c1 (centres undefined)	-4.6%	-12.1%
CCOc1ccc(/C=C/c2nc(C#N)c(NCc3ccccc3)o2)cc1	?	?
CCCOc1cccc(C2c3c(oc4ccc(F)cc4c3=O)C(=O)N2CCCN2CCOCC2)c1 (centres undefined)	-1.7%	18.5%

Of the compounds above, these have an NH in an aromatic ring.
SMILES	StopGo FLuc	2A Renilla
O=C(O)Cc1ccc2c(c1)[nH]c1ccccc12	8.4%	-17.5%
CC(CNC(=O)Cc1n[nH]c(=O)c2ccccc12)(c1ccccc1)c1ccccc1	7.8%	0.0%
Cc1[nH]c(C(=O)NCCc2ccc(F)cc2)c(C)c1C(=O)OC(C)C	0.0%	6.8%
Cc1ccc(-c2nnc(Nc3ccc(Br)cc3)c3ccccc23)cc1S(=O)(=O)NCc1nc2ccccc2[nH]1	-15.0%	-7.3%
O=c1cc(-c2ccc(F)cc2)nc(SCc2nc(-c3ccccc3Cl)no2)[nH]1	-13.9%	-15.8%
Cc1ccc(N2CCN(C(=O)c3cc4ccccc4[nH]3)CC2)cc1	51.9%[activator]	-3.7%
CC(=O)Nc1ccc2c(C(C(=O)O)N3CCN(c4cc(C)c5ccccc5n4)CC3)c[nH]c2c1 (centres undefined)	-4.6%	-12.1%

(more compounds)
SMILES	StopGo FLuc	2A Renilla
CCCCCn1c(=O)[nH]c2cc(C(=O)NCc3ccc(C)cc3)ccc2c1=O	-11.1%	-3.2%
O=C1NC2(CCN(S(=O)(=O)c3ccc(F)cc3)CC2)N=C1c1cccs1	6.7%	8.8%
COc1ccc(-n2nc(C(=O)NCC(=O)NC3CCCCC3)c3ccccc3c2=O)c(OC)c1	-9.8%	6.4%
O=C(NCCc1ccccn1)c1ccc(F)cc1	76.8%[activator]	19.6%
CN(Cc1ccccc1)C(=O)c1cn(C)c2ccc(S(=O)(=O)N(C)C3CCCCC3)cc2c1=O	-9.9%	8.1%
COc1ccc(CCC(=O)NC2CC(=O)N(c3ccc(OC)cc3)C2)cc1 (centres undefined)	-14.7%	-15.3%
Cc1nc2ccn(Cc3cccnc3)c(=O)c2cc1C(=O)Nc1ccc(F)cc1F	-16.3%	1.1%
Cc1ccccc1C(=O)N(Cc1sccc1C)C1CCS(=O)(=O)C1 (centres undefined)	11.9%	-4.7%
OCc1cnc2ccccc2c1	7.7%	-2.8%
COc1ccc(NC(=O)C(=O)NCC2(c3ccccc3)CCCC2)c(OC)c1	-8.2%	1.5%
O=C(CCCN1C(=O)NC2(CCCC2)C1=O)Nc1cnc2ccccc2c1	29.0%	-11.6%
Cc1cc(Cl)ccc1NC(=O)Cn1nc(C(=O)O)c2ccccc2c1=O	-6.9%	-8.3%
Cn1nc(C(=O)N(Cc2ccc3c(c2)OCO3)C2CCCC2)c2ccccc2c1=O	-14.7%	-17.3%
COc1ccc(-c2cc(OC(=O)c3cccc(Cl)c3)c3c(C)oc(C)c3c(=O)c2)cc1	-6.5%	-9.9%
COc1ccc(NC(=O)CSc2nccn2Cc2ccco2)cc1OC	67.1%[activator]	0.0%
COc1ccc(/C=C/C(=O)c2cccc(N)c2)cc1	156.9%[activator]	17.3%
Cc1cc2oc(=O)cc(COC(=O)c3cc(S(=O)(=O)N(C)C)ccc3NCCO)c2cc1C	14.4%	13.0%
CC(C)(C)c1ccc(C(=O)C(=O)N(Cc2cccs2)C2CC2)cc1	135.1%[activator]	49.2%[activator]
Brc1ccc(-c2cc3c(N4CCN(c5ccccc5)CC4)nccn3n2)cc1	-17.1%	-9.6%
CC1(C)CC(N=Cc2ccccc2O)CC(C)(C)N1	22.0%	4.8%
CN(C(=O)c1c(Cl)c2ccccc2n1C)c1ccccc1	5.6%	-12.7%
Cc1ccc(NS(=O)(=O)c2c(F)cc(F)cc2Br)cc1C	16.9%	343.9%[activator]
N#Cc1ccc(OCCSC2=NCCS2)cc1	165.4%[activator]	2.0%
CCOc1ccc(CNC2CCCc3ccccc32)cc1 (centres undefined)	30.0%	-0.5%
CC(C)(CC(=O)O)CC(=O)Nc1ccccc1	-8.1%	-2.4%
Continuation:
SMILES	StopGo FLuc	2A Renilla
COc1ccc(OC)c(S(=O)(=O)NCc2ccc3c(c2)CCN3C(=O)c2cccc(C)c2)c1	-24.6%	126.6%[activator]
O=C(CCS(=O)(=O)C/C=C/c1ccccc1)Nc1ccc(F)cc1	0.0%	11.3%
CCN(CC)C(=O)/C(C#N)=C/c1cc(O)c(O)c([N+](=O)[O-])c1	-17.6%[11.5 µM]	-7.3%
CC(C)(C)c1ccc(OCCC(=O)Nc2ccc(N3CCOCC3)cc2)cc1	0.0%	-18.9%
O=C(CSc1c2c(nc3ccccc13)CCC2)Nc1ccc(F)cc1F	20.2%	27.0%
Cc1ccccc1NC(=O)c1c(C)oc2ccc(O)c(CN3CCN(C)CC3)c12	2.4%	1.3%
O=C(c1cccc(F)c1)N1CCN(Cc2cc(=O)n3ccsc3n2)CC1	-2.5%	5.2%
CC(C)C(NC(=O)Cc1n[nH]c(=O)c2ccccc12)c1ccc(C(C)(C)C)cc1 (centres undefined)	0.3%	-1.9%
CCOc1ccccc1CNC	-4.5%	3.2%
Cc1cccc(N2CCN(C(=O)C3CCC(CNS(=O)(=O)c4ccc(Br)s4)CC3)CC2)c1C (centres undefined)	-14.5%	-16.8%
CCOc1cc([C@H]2[C@@H]3CCCC[C@]3(O)CCN2Cc2ccccc2F)ccc1O	0.2%	14.1%
CC(=O)N1CCC(N(Cc2ccco2)C(=O)Nc2ccc(Br)cc2F)CC1	-1.1%	32.7%
O=C(/C=C/c1ccc(OCc2ccccc2)cc1)c1ccccc1	146.3%[activator]	-9.9%[1.06 µM]
COC(=O)COc1ccc2c(=O)c(Oc3ccc(Br)cc3)c(C)oc2c1	-10.1%	-15.1%
CC(C)(C)C(=O)/C=c1/[nH]c(=O)/c(=C\c2ccccc2OC(F)(F)F)s1	3.7%	-4.1%
Cc1ccc(S(=O)(=O)NCc2ccc(N3CCCC3)nc2)cc1C	-3.7%	8.8%
CSc1ccccc1NC(=O)CC(C)(C)CC(=O)O	15.0%	6.7%
Cc1ccc(NC(=O)c2ccc(S(=O)(=O)NCC(C)O)cc2)cc1Cl (centres undefined)	6.8%	69.5%[activator]
COc1cccc(CN(C(=O)c2cc3ccccc3oc2=O)C2CCS(=O)(=O)C2)c1 (centres undefined)	0.0%	13.0%
CC(C)CC(=O)OCc1cc(=O)n2nc(C3CCCCC3)sc2n1	15.8%	-10.3%
Cc1cc(C(=O)N2CCN(CC(=O)NC3CC3)CC2)c2ccccc2n1	-17.4%	-16.5%
CCCc1ccc(-c2ccc(C(=O)Oc3ccc(Br)cc3)cc2)nc1	24.0%	-8.1%
CCN1CCN(C(c2ccc(OC)cc2)c2c(O)cc(C)n(Cc3ccco3)c2=O)CC1 (centres undefined)	-26.6%	-1.3%
CC(=O)Nc1cc(NC(=O)C2(C)CC2(Cl)Cl)ccc1C (centres undefined)	4.0%	16.8%
CCCNC(=O)CCCN1C(=O)CCn2nc(-c3cccn3C)cc21	-10.4%	-15.5%
Next section.
SMILES	StopGo FLuc	2A Renilla
O=C(NCC1(c2ccccc2)CC1)c1n[nH]c(=O)c2ccccc12	8.4%	-4.2%
Fc1ccccc1N1CCN(c2nnc(C(F)(F)F)c3nnn(Cc4ccccc4)c23)CC1	-7.2%	-9.8%
Cc1cccc(NC(=O)CN(C)C(=O)CCc2ncc(-c3ccccc3F)o2)c1C	13.6%	-13.3%
COc1ccc(-c2coc3cc(OC(=O)c4ccccc4)ccc3c2=O)cc1OC	47.4%[activator]	-8.2%
CCc1nc2cccnc2n1-c1ccc(CC(=O)Nc2ccccc2Cl)cc1	-24.1%	6.1%
Clc1ccc(C2CC(c3ccc(Br)cc3)=NO2)cc1 (centres undefined)	0.0%	29.1%
C=CCOc1cccc(NC(=O)C2CC2)c1	44.3%[activator]	27.9%
O=C(O)c1ccc(NC(NC(=O)c2ccco2)C(=O)c2ccccc2)cc1 (centres undefined)	34.8%[activator]	-7.2%

Source: PubChem BioAssay
